Beta apoptosis – beta cell apoptosis inhibition. INS-1E cytokine-induced death, ATP luminescence, 48 h; percent of positive-control rescue, neutral wells zero. protection from apoptosis, % (no concentration beside the values). 300,000 compounds, 0.8% hits. AID 435005;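 active = all replicates at 75% or more, or half of them and the mean; inconclusive = half reach 75% but not the mean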;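 note: 0% = cytokine-treated negative control wells and 100% = positive control rescue; higher means more ATP so stronger rescue from cytokine killing; wells of about 40 µL received 100 nL stock; the first replicate is given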
Calb FLC – C. albicans growth modulation with fluconazole | C. albicans CaCi-2 (fluconazole-resistant clinical isolate) + fluconazole, Alamar Blue growth, 48 h | 300,000 compounds, 0.57% hits | AID 1979 | growth inhibition, % (no concentration beside the values);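 active = most replicates above 75%; inconclusive = exactly half above 75%; inactive = most below 75%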;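 note: all wells also contain fluconazole at 8 µg/ml as a sub-toxic cotreatment; 0% = median of DMSO wells and 100% = median of geldanamycin control wells; wells of about 8 µL received 7.5 nL stock; the first replicate is given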
Vif TR-FRET – inhibitors of Vif binding to APOBEC3G peptide, primary screen, biochemical, TR-FRET, GST-Vif 1-94, biotin-A3G peptide, dose response retest (AID 1117319); one-dose inhibition, %; IC50 in µM for titrated hits; TR-FRET GST-Vif / biotin-A3G peptide binding; higher % means a stronger effect; test concentration not given here; strong numbers were not always called active; 260,000 compounds, 0.57% hits;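 active = above the screen mean plus three standard deviations and confirmed in dose response; inconclusive = results disagree or hit not tested in dose response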;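 note: Vif residues 1-94 fused to GST binding biotinylated APOBEC3G peptide 110-148; 0% = full assay without inhibitor and 100% = GST in place of GST-Vif; retest series ran down from 100 µM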
T cruzi repl – blocks replication of Trypanosoma cruzi. T. cruzi beta-gal in NIH3T3, luminescence, 90 h. inhibition, % (concentration not given with the values). 300,000 compounds, 1.4% hits;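 active = mean inhibition across valid replicates above about 55%, limit read from the data; inconclusive = mean below that limit but half or more replicates reach it; inactive = mean below it, under half of replicates reach it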;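 note: signal also drops with host cell toxicity which is not excluded here; 0% = plate median of DMSO wells and 100% = zero luminescence signal; higher percent means less beta-gal luminescence so fewer parasites; stock transfer was 50 nL into about 50 µL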
Ecoli rRNA inh – inhibits bacterial ribosomal RNA function over humanized ribosomes | E. coli WT GFP vs humanized-ribosome RFP mutants, fluorescence, 24 h; stronger effect = lower value; DMSO median 0, no signal -100 | GFP signal change (wild-type ribosome), % (concentration not given with the values) | 350,000 compounds, 1.6% hits | AID 720706;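 active = significant combined selectivity score with lowered wild-type GFP, culture density cut under 30%, mutant RFP and density less affected; inactive = any of these conditions unmet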; note: one replicate is shown; some compounds called inactive have numbers as strong as hits
MLL AF4-AF9 inh – MLL-AF4/AF9 protein interaction inhibition; AlphaScreen, biotin-AF4 peptide binding to FLAG-AF9; 350,000 compounds, 0.47% hits; inhibition, % at 10 µM;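 active = every replicate reaching a set inhibition limit, whatever the replicate mean, cut at about 25% in these data; inconclusive = mean inhibition reaches that limit but some replicates miss it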;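 note: 0% = plate neutral control median and 100% = total signal loss; the record names both 10 and 1 µM as test concentration; the first replicate is given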
Target sequence (P42568 whole entry, looked up): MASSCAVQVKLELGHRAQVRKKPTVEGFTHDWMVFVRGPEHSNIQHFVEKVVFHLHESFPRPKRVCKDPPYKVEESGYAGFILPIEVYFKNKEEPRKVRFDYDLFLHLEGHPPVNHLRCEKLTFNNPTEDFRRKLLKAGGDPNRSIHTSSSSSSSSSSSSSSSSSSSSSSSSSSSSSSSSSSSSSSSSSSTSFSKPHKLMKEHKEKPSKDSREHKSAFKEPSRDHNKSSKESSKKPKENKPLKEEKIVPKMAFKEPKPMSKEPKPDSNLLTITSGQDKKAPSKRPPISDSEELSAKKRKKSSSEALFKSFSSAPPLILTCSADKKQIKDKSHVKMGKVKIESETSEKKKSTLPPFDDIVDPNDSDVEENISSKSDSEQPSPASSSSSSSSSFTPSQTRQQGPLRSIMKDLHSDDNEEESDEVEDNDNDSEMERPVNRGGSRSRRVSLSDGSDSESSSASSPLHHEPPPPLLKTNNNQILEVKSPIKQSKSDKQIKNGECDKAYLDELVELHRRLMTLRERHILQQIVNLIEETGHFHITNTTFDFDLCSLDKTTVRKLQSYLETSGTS
RanGTP-Impb inh – inhibitors of RanGTP-importin-beta interaction, primary screen, biochemical, FRET, CFP-Ran, YFP-importin-beta, homogeneous | cell-free CFP-Ran/YFP-importin-beta FRET ratio | 300,000 compounds, 1.1% hits | inhibition, % (concentration not given with the values);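 active = most replicates above 15%; inconclusive = exactly half above 15%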;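 note: 0% = DMSO wells and 100% = Ran loaded with GDP instead of GTP; wells of about 40 µL received 100 nL stock; the first replicate is given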
Bfl-1 A1 inh – inhibitors of the anti-apoptotic protein A1, read as caspase activation; 330,000 compounds, 0.066% hits; MEF A1-2A-BIM cells, Caspase-Glo 3/7 luminescence, 3 h; percent of clofoctol response, vehicle zero; caspase activation, % (no concentration beside the values);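 active = over half of replicate activation scores above 10%, or exactly half above 10 with the replicate mean above 10; inconclusive = replicate mean below 10 yet half the replicates above 10; inactive = over half of replicates below 10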;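 note: wells of about 30 µL received 50 nL stock; many hits fall short of the cut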
Ecoli rRNA inh OD600 – also measured in Ecoli rRNA inh; calls as there; OD600 change, %; measured here: OD600 growth;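 optical density of the mix in the first replicate; 0 = DMSO median and -100 = no signal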
Ecoli rRNA inh RFP – also measured in Ecoli rRNA inh; calls as there; RFP signal change, %; measured here: RFP humanized mutant strains;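 first replicate; 0 = DMSO median and -100 = no signal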
Numbers without * were called inactive; ? = inconclusive; / = not tested or not shown; & = joins results of further samples. Only part of the results is shown (hit frequency here may not be typical).

SMILES	Beta apoptosis	Calb FLC	Vif TR-FRET	T cruzi repl	Ecoli rRNA inh	Ecoli rRNA inh OD600	Ecoli rRNA inh RFP	MLL AF4-AF9 inh	RanGTP-Impb inh	Bfl-1 A1 inh
CN1CCN(c2oc(Cc3cccc4ccccc34)nc2C#N)CC1	-6	-7	-5%	27	-16	-6	2.1	13	0.0	-0.3
COC(=O)/C(=C1/Oc2ccc(C)cc2S1)C(F)(F)F	3	2	-9%	-30	10	6	1.3	0.0	?	-1.8
CC(C)c1cc(NCCOCCO)n2c(nc3ccccc32)c1C#N	3	-2	/	12	-9	-2	-3.1	1.9	?	-0.7
CC(=O)c1cccc(NCC(=O)N2CCN(S(=O)(=O)c3ccccc3)CC2)c1	0	/	/	/	16	13	1.7	-2.4	/	-0.4
CCC1CCCCN1CCCNC(=O)c1ccc(CS(=O)(=O)Cc2ccc(Cl)cc2)o1 (stereo unspecified)	0	-7	/	12	7	6	1.1	1.6	-2.6	?
CCN(CC(=O)NC(C)(C)C)C(=O)C(c1ccccc1)c1ccccc1	-5	12	/	-12	1	6	0.0	-0.9	0.7	0.1
CC(C)C(CCNC(=O)CN1C(=O)c2ccccc2C1=O)c1ccco1 (stereo unspecified)	-9	?	17%	-4	/	/	/	/	6.5	-0.2
Cc1ccc(C)c(OCc2cc(C(=O)N3CCC(N4CCCC(O)C4)CC3)no2)c1 (stereo unspecified)	-4	5	-9%	7	-9	-6	2.3	1.6	2.2	-0.5
O=c1c2cccnc2[nH]c(=S)n1CCCN1CCN(c2ccc(F)cc2)CC1	-6	11	-4%	22	/	/	/	/	0.3	-0.8
O=C(CCN1C(=O)C2C3CCC(C3)C2C1=O)Nc1cccc(Cl)c1 (stereo unspecified)	-7	5	/	-14	4	7	10	-6.0	4.0	0.3
O=C(Cc1ccc(F)cc1)c1ccc(O)cc1O	-6	-34	-2%	-15	/	/	/	/	2.7	-4.3
CN(C)C(/C=C/Nc1ccc(O)cc1)=C(C#N)C#N	-7	-5	16%	-11	6	3	1.0	-0.7	-4.0	0.1
CCn1c2ccc(/C(C)=N\O)cc2c2cc(/C(C)=N\O)ccc21	-12	2	-5%	/	/	/	/	/	-0.8	0.2
CCOCc1cnc(C)nc1NCC(=O)c1c(C)n(C)c2ccc(OC)cc12	/	-12	8%	15	/	/	/	/	-6.0	/
O=C(c1cc(COc2ccc(F)cc2Cl)on1)N1CCCCCC1	/	-4	1%	17	-14	-26	1.4	-16	-3.4	/
O=C(COC(=O)/C=C/c1cccc(Br)c1)NC1CCCCCC1	0	/	-6%	/	21	17	0.1	0.3	/	-1.8
CCCCCc1cc(=O)oc2c(C(CCN3CCCC(C)C3)c3ccc4c(c3)OCO4)c(OC)cc(OC)c12 (stereo unspecified)	67	-3	0%	35	-36	-16	38	21	1.3	0.2
COc1cccc(CNC(=O)c2nnn(CC(=O)Nc3ccc(C)c(C)c3)c2N)c1	7	9	-8%&1%	7	/	/	/	/	6.8	-0.3
O=C(NCc1ccc(Cl)cc1)C1CCN(S(=O)(=O)c2ccc(F)cc2)CC1	2	7	21%	17	12	15	0.6	-11	5.2	0.6
N#Cc1ccccc1NC(=O)Nc1cccs1	-8	-1	3%	1	/	/	/	/	-5.4	0.5
CN(Cc1ccccc1)C1(CNC(=O)CCC(F)(F)F)Cc2ccccc2C1	-7	8	/	-34	-3	-4	-12	-1.5	-3.4	-0.4
Cc1ccc(-c2csc3nc(C)n(-n4c(C)ccc4C)c(=O)c23)o1	-4	-5	10%	4	/	/	/	/	2.3	-0.3
Cc1cccc(NC(=S)N2CCN(c3ccccc3F)CC2)c1C	-3	3	4%	-14	-6	2	-3.9	4.1	13	0.0
CC(C)(C)OC(=O)N1CCN(c2ccc(NC(=O)Cn3nnc(-c4ccccc4)n3)cc2)CC1	5	-1	14%	31	/	/	/	/	-1.9	1.6
CC(C)(C)OC(=O)C[C@H]1C/C=C\C[C@@H](CC(=O)N[C@H](CO)Cc2ccccc2)C(=O)NC[C@H](c2ccccc2)OC1=O	-2	/	/	/	4	4	-3.4	-8.1	/	0.3

(listing goes on)
SMILES	Beta apoptosis	Calb FLC	Vif TR-FRET	T cruzi repl	Ecoli rRNA inh	Ecoli rRNA inh OD600	Ecoli rRNA inh RFP	MLL AF4-AF9 inh	RanGTP-Impb inh	Bfl-1 A1 inh
OC(CNCCc1ccc(C(F)(F)F)cc1)COc1cccc2ccccc12 (stereo unspecified)	69	-7	22%	60*	/	/	/	/	?	1.5
CCOC(=O)C1(Cc2ccccc2)CCN(Cc2ccon2)CC1	4	0	-3%	6	-4	-5	1.5	0.2	0.5	-0.7
CCN(CC)CCCNC(=O)c1cc(-c2ccc3c(c2)OCO3)on1	-7	-1	-2%	14	9	9	0.8	-14	-1.3	-1.7
CSc1nsc(SCC(=O)Nc2ccccc2C(N)=O)n1	/	12	/	-4	2	-1	1.2	-1.0	-2.7	0.3
CC(=O)NCC(=O)N(c1c(C)n(C)n(-c2ccccc2)c1=O)C1(C(=O)NC2CCCC2)CCCCC1	0	-3	3%	-10	/	/	/	/	0.1	0.0
Cc1ccc(COc2cccc(/C=N/NC(=O)c3nnn(-c4nonc4N)c3C)c2)cc1	13	-2	/	-5	3	3	-3.1	0.9	1.2	0.2
COc1cccc(C(=O)Nc2nnc(S(=O)(=O)N(C)c3ccccc3)s2)c1	20	5	2%	-9	-2	7	6.4	-3.7	3.7	0.1
CC1CCCN(c2nc3c(c(=O)n(C)c(=O)n3C)n2CCSc2nc3ccccc3s2)C1 (stereo unspecified)	5	16	25%	30	/	/	/	/	1.3	-0.4
O=C(CSc1nnc2ccccn12)NNC(=O)c1cccc(Cl)c1	0	/	-1%	/	8	23	-2.0	-2.8	/	0.1
CCOc1ccccc1Nc1nc2ccccc2n1C(C)C	-4	-6	-11%	16	9	7	-0.8	-0.1	3.9	-0.4
CCOC(=O)CSc1nnc(CSc2nc3sc4c(c3c(=O)[nH]2)CCC4)n1-c1ccccc1	-1	2	-2%	-10	/	/	/	/	0.4	-0.5
CCCOc1cccc(C2C(C(=O)c3ccco3)=C(O)C(=O)N2c2nnc(C)s2)c1 (stereo unspecified)	-4	39	/	-6	1	3	-1.9	-3.4	-11	-1.6
N=c1n(CCO)c2ccccc2n1Cc1ccccc1Cl	3	-13	-6%	-1	/	/	/	/	7.2	0.8
Cc1cc(N2CCN(S(=O)(=O)c3ccc(C)c(C)c3)CC2)c2ccccc2n1	10	-1	1%	10	/	/	/	6.1	?	-0.8
CCOc1ccccc1NC(=S)NC(=O)CCCOc1ccc(Cl)cc1Cl	5	6	23%	20	-3	-10	-4.1	-24	-0.6	-0.4
COC(=O)CSc1nnc(-c2ccc(S(=O)(=O)N3CCC(C)CC3)cc2)o1	-3	?	18%	0	/	/	/	/	0.3	0.1
Cc1ccc(NC(=O)N(Cc2cccnc2)Cc2ccco2)cc1C	-6	22	1%	67*	/	/	/	/	-1.5	0.6
Cc1ccc(C(C(=O)NC2CCCC2)N(Cc2cccnc2)C(=O)c2snc(C(N)=O)c2N)o1 (stereo unspecified)	0	5	6%&17%	-1	/	/	/	/	-0.6	0.2
CC(=O)C1=C(O)C(=O)N(c2cccnc2)C1c1ccc([N+](=O)[O-])cc1 (stereo unspecified)	-7	-7	7%	12	-4	8	-1.5	-10	0.2	0.1
Cn1c(-c2ccc(Cl)cc2)ccc(C#N)c1=O	-7	-19	>100µM*	-12	/	/	/	/	1.8	-1.6
COc1ccc(CC(=O)NNC(=O)c2ccncc2)cc1	-6	-15	5%	-14	16	7	1.1	-7.2	-2.4	-0.3
CC(C)C[C@@H](C(=O)N[C@@H](C(=O)O)c1ccccc1)N1C(=O)N2CCc3c([nH]c4ccccc34)[C@@]2(C)C1=O	-1	-5	/	-5	/	/	/	-0.9	-1.1	-0.4
CC(C)CNC(=O)COC(=O)c1cc(Cl)cc(Cl)c1N	0	5	-5%	0	1	7	-6.0	/	-2.1	0.4
COc1ccc(N2CCN(C(=O)c3ccccc3N(C)S(=O)(=O)c3ccc(C)cc3)CC2)cc1	-3	0	1%	8	-37	-36	1.4	4.2	0.3	-1.3
Cc1cc(Br)ccc1NC(=O)CNC(=O)Cn1ncc(Cl)c(Cl)c1=O	-59	-8	-13%	-5	9	15	0.4	-1.4	?	0.3

The list goes on:
SMILES	Beta apoptosis	Calb FLC	Vif TR-FRET	T cruzi repl	Ecoli rRNA inh	Ecoli rRNA inh OD600	Ecoli rRNA inh RFP	MLL AF4-AF9 inh	RanGTP-Impb inh	Bfl-1 A1 inh
CN(c1ccc(OCC(=O)OCC(=O)NC2CCCC2)cc1)S(=O)(=O)c1ccc2ccccc2c1	-12	3	?	-1	-3	-10	0.7	-0.8	-2.7	-0.1
O=C(CSc1ccc(Cl)cc1)N1CCN(c2ncc(C(F)(F)F)cc2Cl)CC1	-1	11	-1%	36	/	/	/	/	1.9	-0.2
Clc1ccccc1CN1CCN(c2ncccn2)CC1	-1	-5	-6%	4	-14	-15	-2.1	-1.4	5.4	0.5
Cn1cccc1-c1nc2ccc(NC(=O)c3cccs3)cc2[nH]1	16	5	2%	-5	/	/	/	/	12	0.2
O=C(O)CCCNC(=O)CC1S/C(=N/N=C/c2ccccc2O)NC1=O (stereo unspecified)	-1	-2	7%	-2	14	6	6.7	-1.2	2.7	-0.1
O=C(N/N=C/c1cccc([N+](=O)[O-])c1)c1ccc(COc2ccccc2-c2ccccc2)cc1	2	-20	/	40	9	-4	2.3	?	-1.3	0.2
CCOC(=O)c1cc(C#N)c(Oc2ccccc2OC)nc1-c1ccccc1	38	-1	-1%	9	/	/	/	/	-1.9	-0.7
Cc1cccc(N(C(=O)CNC(=O)c2ccco2)C(C(=O)NC2CCCC2)c2cccnc2)c1 (stereo unspecified)	-5	-1	-7%	-8	/	/	/	/	-4.9	1.0
O=C(c1cc(COc2ccc(F)cc2F)on1)N1CCCC(c2ccccc2)C1 (stereo unspecified)	3	0	?	16	-22*	-8.3*	3.3*	-1.5	4.8	0.3
CCN(CC)C(=O)c1ccc(-c2cccs2)s1	-4	-6	26%	-4	/	/	/	2.7	0.4	-1.2
CCN(CC(=O)Nc1ccc(S(=O)(=O)N2CCCC2)cc1)Cc1ccccc1	4	-1	-10%	8	-2	-6	4.8	1.0	0.7	0.5
Cc1ccc(NC(=O)COC(=O)/C=C/c2cccs2)cc1	-2	4	/	-29	/	/	/	/	-2.1	0.5
CC(C)(C)n1ncc2c(=O)n(CC(=O)N3CCCc4ccccc43)cnc21	-2	0	-2%	3	/	/	/	/	-3.4	-0.4
CC1(C)Cc2ccccc2-c2nc(NCCCO)[nH]c(=O)c21	-5	4	-4%	-9	-43*	-27*	-6.9*	?	0.3	0.4
CC1(C)CC(NC(=O)c2cccc(F)c2)CC(C)(C)N1	/	6	/	1	7	18	-0.4	-0.9	?	0.9
